Bioassay records (PubChem)
GLD-1 RNA inh: GLD-1-TGE RNA interaction inhibition (C. elegans) | purified GLD-1 + fluorescein TGE RNA, fluorescence polarization | inhibition, % at 5.96 µM | 0.44% of 320,000 active | AID 2280;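 active = percent inhibition above a per-plate cutoff, the plate mean of test compounds plus 3 SD, cut at about 30% in these data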;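 also: 0% = DMSO wells with GLD-1 and probe and 100% = wells lacking GLD-1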
Fam108B inh: counter-screen for RBBP9 inhibitors: inhibitors of mouse Fam108B. recombinant Fam108B, FP-Rh probe fluorescence polarization. inhibition, % at 9.51 µM. 0.33% of 300,000 active. AID 1947;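 active = inhibition above the screen mean inhibition plus 3 SD, computed separately per campaign, cut at about 18% in these data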;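 also: inhibitors lower polarization as less probe binds the enzyme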
TPT1 inhibitor: C. albicans TPT1 enzyme inhibition; recombinant caTPT1, FP RNA substrate dephosphorylation; AID 1962; 0.81% of 300,000 active; inhibition, % at 5 µM;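 active = inhibition above the mean of all tested compounds plus 3 SD, set per screening campaign, cut at about 24% in these data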;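 also: plate controls were DMSO alone for no effect and ferristatin control at 100 nM for full effect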
PAD4 FP inh: inhibitors of human PAD4; 0.41% of 330,000 active; AID 485272; inhibition, % at 6.36 µM; recombinant PAD4, RCA probe fluorescence polarization; Q9UM07;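 active = percent inhibition above a cutoff equal to the mean of all tested compounds plus 3 SD, cut at about 15% in these data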;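 also: 0% = PAD4 with RCA probe and DMSO and 100% = probe without PAD4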
Target sequence (Q9UM07 whole entry, looked up): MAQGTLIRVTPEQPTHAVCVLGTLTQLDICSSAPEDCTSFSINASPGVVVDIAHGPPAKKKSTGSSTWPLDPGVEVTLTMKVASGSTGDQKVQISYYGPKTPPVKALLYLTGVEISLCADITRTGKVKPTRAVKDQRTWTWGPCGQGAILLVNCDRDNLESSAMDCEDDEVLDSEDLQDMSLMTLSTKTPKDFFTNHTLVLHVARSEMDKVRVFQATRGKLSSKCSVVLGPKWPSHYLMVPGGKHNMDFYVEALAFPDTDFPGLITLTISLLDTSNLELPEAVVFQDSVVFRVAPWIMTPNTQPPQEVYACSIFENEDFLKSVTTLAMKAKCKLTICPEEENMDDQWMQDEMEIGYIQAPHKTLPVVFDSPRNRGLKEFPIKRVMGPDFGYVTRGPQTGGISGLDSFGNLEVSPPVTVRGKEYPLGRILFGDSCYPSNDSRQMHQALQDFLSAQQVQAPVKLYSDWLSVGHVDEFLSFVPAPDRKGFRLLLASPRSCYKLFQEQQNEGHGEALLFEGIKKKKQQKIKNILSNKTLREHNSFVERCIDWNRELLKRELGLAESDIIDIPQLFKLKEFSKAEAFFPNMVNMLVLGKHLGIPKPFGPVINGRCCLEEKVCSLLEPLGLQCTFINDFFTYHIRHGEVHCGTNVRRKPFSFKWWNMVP
PME-1 primary: blocks human protein phosphatase methylesterase 1; Q9Y570; recombinant PME-1, FP-Rh probe fluorescence polarization; inhibition, % at 5.9 µM; 0.53% of 320,000 active; AID 2130;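 active = inhibition above the campaign mean of all compounds plus 3 SD, cut at about 26% in these data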;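 also: competitive labeling of PME-1 active site by serine hydrolase directed probe; 0% = PME-1 with DMSO and 100% = wells lacking PME-1 enzyme; inhibitors block probe labeling so polarization falls and inhibition rises; many of its hits are not listed in these tables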
MEX-5 binding: C. elegans MEX-5 TCR-2 RNA binding activity. AID 1832. Q9XUB2. MEX-5/FITC-TCR2 RNA binding, fluorescence polarization; stronger effect = lower value. 0.38% of 300,000 active. activity score (negative = inhibition of binding), % at 10 µM;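 active = inhibition past about -25% in most replicates, and total fluorescence under double the plate's negative control median, limit read from the data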;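 also: 0% = DMSO and -100% = 5 µM competing unlabeled TCR2 RNA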
An asterisk follows results filed as active; & = joins results of further samples.

What do the screens show for `CN(C)C(=S)SSC(=S)N(C)C`?
GLD-1 RNA inh: 1; Fam108B inh: 5; TPT1 inhibitor: -5; PAD4 FP inh: 2; PME-1 primary: -5; MEX-5 binding: 1.5

How did COc1cc(OC)c2c(c1)OCC1CON(C)C21 (stereo not given) do in these assays?
GLD-1 RNA inh: 1; Fam108B inh: 2; TPT1 inhibitor: 4; PAD4 FP inh: -5; PME-1 primary: 0; MEX-5 binding: 0.4

What do the screens show for `COc1ccc(NC(=O)c2cn(CCC#N)nc2-c2ccccc2)cc1`?
GLD-1 RNA inh: 3; Fam108B inh: 2; TPT1 inhibitor: -2; PAD4 FP inh: 4; PME-1 primary: -4; MEX-5 binding: 1.3

How did CN1CCN(c2ccc(C(F)(F)F)cc2N)CC1 do in these assays?
GLD-1 RNA inh: -1; Fam108B inh: -4; TPT1 inhibitor: -3; PAD4 FP inh: 6; PME-1 primary: -4; MEX-5 binding: -2.0

Results for Cc1ccc(N)c(C)c1 ?
GLD-1 RNA inh: -9; PAD4 FP inh: -4; PME-1 primary: -3

How did Cc1ccc(Cl)cc1N1CCN(CCN)CC1 do in these assays?
GLD-1 RNA inh: -2; Fam108B inh: 1; TPT1 inhibitor: -3; PAD4 FP inh: -1; PME-1 primary: 3; MEX-5 binding: 2.0

How did CC(=O)[C@H]1CC[C@H]2[C@@H]3CC[C@H]4C[C@H](O)CC[C@]4(C)[C@H]3C(=O)C[C@]12C do in these assays?
GLD-1 RNA inh: 12; Fam108B inh: 4; TPT1 inhibitor: -1; PAD4 FP inh: 1; PME-1 primary: 4; MEX-5 binding: 0.1

How did C[C@]12CCC(=O)C[C@@H]1CC[C@@H]1[C@@H]2CC[C@]2(C)[C@@H](O)CC[C@@H]12 do in these assays?
GLD-1 RNA inh: -6; PAD4 FP inh: -2

What do the screens show for `O=S(=O)(c1ccc(O)cc1)c1ccc(O)cc1`?
GLD-1 RNA inh: 5; Fam108B inh: -2; TPT1 inhibitor: -4; PAD4 FP inh: 0; PME-1 primary: 5; MEX-5 binding: 0.8

Results for CC(NC(C)(C)C)C(=O)c1cccc(Cl)c1 (stereo not given) ?
GLD-1 RNA inh: 6&-1; Fam108B inh: -3&-1; TPT1 inhibitor: 1&3; PAD4 FP inh: -3&0; PME-1 primary: -5&1; MEX-5 binding: -6.9&3.3

Results for C[C@]12CCC(=O)C[C@H]1CC[C@@H]1[C@@H]2CC[C@]2(C)[C@@H](O)CC[C@@H]12 ?
GLD-1 RNA inh: -1; Fam108B inh: 1; TPT1 inhibitor: 4; PAD4 FP inh: -2; PME-1 primary: -3

How did CCn1ccnc1CN1CCCC(C(=O)c2cc(F)ccc2OC)C1 (stereo not given) do in these assays?
GLD-1 RNA inh: -1; Fam108B inh: -5; TPT1 inhibitor: -3; PAD4 FP inh: -1; PME-1 primary: 6; MEX-5 binding: -5.5

How did BrCC(Br)(Br)Br do in these assays?
GLD-1 RNA inh: -2; PAD4 FP inh: -2; PME-1 primary: -4

How did CC1=C2C3OC(=O)C(C)C3CC[C@@]2(C)C=CC1=O (stereo not given in full) do in these assays?
GLD-1 RNA inh: 3; Fam108B inh: 1; TPT1 inhibitor: -6; PAD4 FP inh: -4; PME-1 primary: 4; MEX-5 binding: -5.3

8 consecutive records from above:
How did CC(=O)[C@H]1CC[C@H]2[C@@H]3CC[C@H]4C[C@H](O)CC[C@]4(C)[C@H]3C(=O)C[C@]12C do in these assays?
GLD-1 RNA inh: 12; Fam108B inh: 4; TPT1 inhibitor: -1; PAD4 FP inh: 1; PME-1 primary: 4; MEX-5 binding: 0.1

How did C[C@]12CCC(=O)C[C@@H]1CC[C@@H]1[C@@H]2CC[C@]2(C)[C@@H](O)CC[C@@H]12 do in these assays?
GLD-1 RNA inh: -6; PAD4 FP inh: -2

What do the screens show for `O=S(=O)(c1ccc(O)cc1)c1ccc(O)cc1`?
GLD-1 RNA inh: 5; Fam108B inh: -2; TPT1 inhibitor: -4; PAD4 FP inh: 0; PME-1 primary: 5; MEX-5 binding: 0.8

Results for CC(NC(C)(C)C)C(=O)c1cccc(Cl)c1 (stereo not given) ?
GLD-1 RNA inh: 6&-1; Fam108B inh: -3&-1; TPT1 inhibitor: 1&3; PAD4 FP inh: -3&0; PME-1 primary: -5&1; MEX-5 binding: -6.9&3.3

Results for C[C@]12CCC(=O)C[C@H]1CC[C@@H]1[C@@H]2CC[C@]2(C)[C@@H](O)CC[C@@H]12 ?
GLD-1 RNA inh: -1; Fam108B inh: 1; TPT1 inhibitor: 4; PAD4 FP inh: -2; PME-1 primary: -3

How did CCn1ccnc1CN1CCCC(C(=O)c2cc(F)ccc2OC)C1 (stereo not given) do in these assays?
GLD-1 RNA inh: -1; Fam108B inh: -5; TPT1 inhibitor: -3; PAD4 FP inh: -1; PME-1 primary: 6; MEX-5 binding: -5.5

How did BrCC(Br)(Br)Br do in these assays?
GLD-1 RNA inh: -2; PAD4 FP inh: -2; PME-1 primary: -4

How did CC1=C2C3OC(=O)C(C)C3CC[C@@]2(C)C=CC1=O (stereo not given in full) do in these assays?
GLD-1 RNA inh: 3; Fam108B inh: 1; TPT1 inhibitor: -6; PAD4 FP inh: -4; PME-1 primary: 4; MEX-5 binding: -5.3

Only part of the results is shown; count on the stated rates, not on these rows.
